Screens: PubChem, National Center for Advancing Translational Sciences (NCATS)
Six1-Eya2 inh: blocks human Six1 binding to Eya2 | Q15475+O00167 | AlphaScreen GST-Six1/His-Eya2 binding, biochemical; stronger effect = lower value; control for the full effect not named in the record | activity change, % (no concentration beside the values) | 360,000 tested, 0.56% active | AID 651725; in the data active = activity change below about -65%; inconclusive = about -30% to -65%; inactive = above about -30%; further: on the % scale 0 is the no-effect control and ±100 the full control effect; compound concentration not given in the record
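AlphaScreen with GST-Six1 and His-Eya2 (5X mix: 250 nM and 500 nM), glutathione donor and nickel acceptor beads; buffer 50 mM Tris pH 8.0, 300 mM NaCl, 1 mM TCEP; 1 h at 37 C in the dark.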
CtBP-E1A inh: inhibitors of CtBP/E1A interaction; AlphaScreen GST-E1A/His-CtBP binding, 1536-well; stronger effect = lower value; control for the full effect not named in the record; activity change, % (test concentration not listed); 340,000 tested, 0.49% active; AID 651724; in the data active means activity change below about -65%; inconclusive means about -30% to -65%; inactive means above about -30%; further: on the % scale 0 is the no-effect control and ±100 the full control effect; compound concentration not given in the record
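GST-E1A and His-tagged CtBP (125 nM each as 5X stock) were preincubated with pin-transferred compound for 2 h at 37 °C in the dark, then glutathione donor and nickel acceptor beads were added for 1 h before AlphaScreen reading.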
D2 potentiator: potentiates the human D2 dopamine receptor allosterically | P14416 | DiscoveRx D2 beta-arrestin cells, luminescence, 90 min; 100% = 57 uM dopamine signal | potentiation, % (no concentration beside the values) | 360,000 tested, 0.23% active | AID 624464; active = potentiation of 50% or more; inconclusive = 30% to 50%; inactive = 30% or less;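 further: compound concentration not given in the record; tested on top of an EC20 dose of dopamine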
Target sequence (P14416 whole entry, looked up): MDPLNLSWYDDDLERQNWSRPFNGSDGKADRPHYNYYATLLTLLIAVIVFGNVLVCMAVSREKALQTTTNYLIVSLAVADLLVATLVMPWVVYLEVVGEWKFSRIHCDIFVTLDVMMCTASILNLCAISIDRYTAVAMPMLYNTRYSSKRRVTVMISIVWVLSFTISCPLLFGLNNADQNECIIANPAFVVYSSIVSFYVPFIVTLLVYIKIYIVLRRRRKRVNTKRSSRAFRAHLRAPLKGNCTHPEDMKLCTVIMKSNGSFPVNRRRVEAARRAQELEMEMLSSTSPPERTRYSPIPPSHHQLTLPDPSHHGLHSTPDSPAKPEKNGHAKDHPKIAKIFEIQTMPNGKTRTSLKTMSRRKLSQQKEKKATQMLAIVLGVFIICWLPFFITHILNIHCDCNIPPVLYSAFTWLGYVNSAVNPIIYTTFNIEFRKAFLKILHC
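PathHunter beta-arrestin assay in DiscoveRx D2 cells. Compounds were added with an EC20 of dopamine (50 nM final) for 90 min at 37 deg C. Luminescence was read 1 h after detection reagent, with 57 uM dopamine as the EC100 control.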
TRPV1 PAM: enhances activation of the human vanilloid receptor TRPV1; Q8NER1; TRPV1-expressing cells, Fluo-8 calcium influx, capsaicin EC20 potentiation; host cell line not named in the record; control for the full effect not named in the record; potentiation, % at 8.33 µM; 320,000 tested, 0.02% active; active means potentiation above 80%; inconclusive means 30% to 80%; inactive means below 30%; further: 0% is about no effect
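Fluo-8 calcium influx in TRPV1-expressing cells, kinetic read (ex 480/em 520 nm). Compound added and read 3 min for agonist activity, followed by capsaicin at EC20 final and 2 min further read for enhancement.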
D2 agonist: agonists of human D2 dopamine receptor (beta-arrestin). P14416. DiscoveRx PathHunter D2 beta-arrestin, luminescence, 90 min; 100% = 57 uM dopamine signal. activation, % (no concentration beside the values). 360,000 tested, 0.084% active; in the data active = activation above about 40%; inconclusive = about 15% to 40%; inactive = below about 15%; further: compound concentration not given in the record; the text of the record calls up to 30% inactive
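Agonist mode: compounds alone added to overnight-plated D2 PathHunter cells for 90 min at 37 C, with 57 uM final dopamine (EC100) defining full response. Beta-arrestin recruitment detected by chemiluminescent reagent, read after 1 h at ambient temperature.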
Sfp PPTase inh: Sfp phosphopantetheinyl transferase inhibition | Potency, µM, without a hit: max response, negative = inhibition, hits mostly inhibitors | Biochemical Sfp PPTase activity, qHTS | Q9F4F7 | 310,000 tested, 3.5% active; active means well fitted inhibition curve with a large enough effect; inconclusive means small, poorly fitted or top-dose-only effect, or another doubt; inactive means no such curve, though single readings can be large or run the other way;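 further: the enzyme is Sfp with the accession as filed and its product quenches rhodamine fluorescence; potency means the concentration at half of the fitted maximal effect; 0% = enzyme reaction without inhibitor and -100% = no enzyme wells; top concentration of the series not given in the record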
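With Hepes-Na pH 7.6 buffer containing 10 mM MgCl2, Sfp (15 nM) modified BHQ-2-YbbR (12.5 uM) using rhodamine-CoA (5 uM). Two reads 30 minutes apart at 525/598 nm yielded each well's rate.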
PINK1 expr mod: changes PINK1 expression | AID 624263 | Potency, µM (top dose mostly 76.6 µM), inactives show top-dose activation (PINK1 increase), most hits filed as activators | 410,000 tested, 0.2% active | PINK1 immunofluorescence, high-content cytometry, 24 h; active = well fitted activation curve with a large enough effect; inconclusive = small, poorly fitted or top-dose-only effect; inactive = flat fitted curve, though single readings scatter; cell line not stated here;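 further: potency means the concentration at half of the fitted maximal effect; % of control where 0% means no effect; nearly all actives have a fitted effect of over 65% in size; a mitochondrial uncoupler was the plate control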
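Measures PINK1 amount and localization on or inside mitochondria by immunofluorescence. Stable cells get compounds at 5 concentrations for 24 hours before fixation and staining; CCCP controls included.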
* = called active by the depositor; ? = inconclusive; . = not tested or not shown; [ ] = remark or other dose.

SMILES	Six1-Eya2 inh	CtBP-E1A inh	D2 potentiator	TRPV1 PAM	D2 agonist	Sfp PPTase inh	PINK1 expr mod
CCN(CC)S(=O)(=O)c1cc(C(=O)O)ccc1OC	2	7	-4	-15	-1.0	3%	-0.8%
CC(C)(C)c1ccc(-c2noc(CCC(=O)NCc3ccco3)n2)cc1	-12	-12	-7	-14	-1.3	13%	0.5%
O=[N+]([O-])c1cc2cccnc2c2ncccc12	?	.	1	17	-2.0	5%	-1.4%
c1ccc(CCc2cccnc2)cc1	3	0	-11	.	-3.2	.	2.5%
CCOc1ccc(C(C)=O)cc1COc1ccc(C)nc1[N+](=O)[O-]	1	3	-1	1	3.2	8%	11%
COCC(=O)N(C)C[C@H]1N[C@@](C)(C(=O)OC)[C@H]2C(=O)N(Cc3ccccc3)C(=O)[C@@H]12	4	0	-1	.	0.2	.	-0.6%
CC(=O)Nc1ccc(SCC(=O)Nc2ccccc2-c2ccccc2)cc1	15	21	-24	19	-4.0	1%	1.0%
O=[N+]([O-])c1cc2ccccc2nc1-c1ccccc1	-7	-11	-4	.	-1.3	.	-1.5%
Cc1c(C(=O)N(C)c2cccc(Cl)c2)cnn1-c1ccccc1	-16	-9	0	-16	-2.2	-9%	-0.3%
O=C(NN1C(=O)C2C3C=CC(C4CC34)C2C1=O)c1ccc(Cl)cc1Cl (stereo unspecified)	-2	-13	-9	-27	-0.4	-29%	-0.6%
N#Cc1cc2c(nc1SCc1ccc(Cl)cc1)CCCC2	6	29	-19	-2	-1.3	?	5.2%[38.3 µM]
c1ccc(-c2nnc(C(c3ccccc3)c3ccccc3)o2)cc1	9	10	-11	-10	-3.3	-27%	24%
O=C(O)CN1C(=O)/C(=C\c2cc(Br)ccc2OCc2ccc([N+](=O)[O-])cc2)SC1=S	-5	4	-6	-6	1.3	?	0.3%
O=C(CCC(=O)c1cccs1)NC(c1ccccc1)c1ccccc1	-2	3	-22	-2	-1.6	-8%	1.6%
CCN(C[C@H]1N[C@@](C)(C(=O)OC)[C@H]2C(=O)N(C)C(=O)[C@@H]12)C(=O)Nc1ccc(OC)cc1	10	2	.	.	-1.9	.	-0.3%
COc1cc(S(N)(=O)=O)c(OC)cc1N	13	.	-20	?	-1.7	-3%	-0.3%
CCOc1ccccc1-c1cc(C(=O)N/N=C(\C)c2cccnc2)c2ccccc2n1	19	0	-22	-13	-4.0	2%	0.7%
Clc1cccc(Cl)c1OCCCCN1CCCCC1	3	10	-3	-5	1.1	10%	1.7%
C=CC(O)Cc1c(C)n[nH]c1C (stereo unspecified)	7	6	-4	1	-2.7	-5%	1.3%[38.3 µM]
O=C(CSc1ccccc1)NCCCN1CCOCC1	6	3	-4	?	-2.5	4%	-1.8%
O=C(NN1C(=O)/C(=C/c2cccs2)SC1=S)c1ccccc1	-16	2	-12	0	-5.5	-4%	-1.0%
CCOC(=O)N1CCN(C(=S)NCCOC)CC1	-1	12	-11	7	-4.0	-4%	.
Oc1[nH]c2ccccc2c1C1=NCCCCC1	-10	-8	-3	3	-1.2	1%	2.3%
Cc1ccc(C(C)C)c(OCC(=O)N2CCN(c3ncccn3)CC2)c1	5	0	9	?	-1.3	.	0.0%
COCCn1c(=O)[nH]c2cc(C(=O)NCc3cccnc3)ccc2c1=O	0	1	-6	-7	-2.8	5%	-0.7%

Among those listed so far, these have a Cl atom:
SMILES	Six1-Eya2 inh	CtBP-E1A inh	D2 potentiator	TRPV1 PAM	D2 agonist	Sfp PPTase inh	PINK1 expr mod
Cc1c(C(=O)N(C)c2cccc(Cl)c2)cnn1-c1ccccc1	-16	-9	0	-16	-2.2	-9%	-0.3%
O=C(NN1C(=O)C2C3C=CC(C4CC34)C2C1=O)c1ccc(Cl)cc1Cl (stereo unspecified)	-2	-13	-9	-27	-0.4	-29%	-0.6%
N#Cc1cc2c(nc1SCc1ccc(Cl)cc1)CCCC2	6	29	-19	-2	-1.3	?	5.2%[38.3 µM]
Clc1cccc(Cl)c1OCCCCN1CCCCC1	3	10	-3	-5	1.1	10%	1.7%

(list continues)
SMILES	Six1-Eya2 inh	CtBP-E1A inh	D2 potentiator	TRPV1 PAM	D2 agonist	Sfp PPTase inh	PINK1 expr mod
CN1CCN(Cc2nc3c(c(=O)[nH]c(=O)n3C)n2CCc2ccccc2)CC1	-1	5	-4	13	-2.0	19%	0.1%
CC(C)CNC(=O)NC(=O)CSc1nc2ccccc2n1CC(C)C	5	-2	2	-2	-1.4	14%	7.0%
CCCCNC(=O)CSc1nc2cc3c(cc2c(=O)n1Cc1ccco1)OCO3	-2	7	-1	-30	-1.7	-8%	3.7%
Cn1ccsc1=NC(=O)c1ccc(S(C)(=O)=O)c([N+](=O)[O-])c1	-13	-3	0	8	4.9	-8%	-0.5%
CC(=O)N1CCN(C(=O)c2ccc(-c3cccc(C(F)(F)F)c3)o2)CC1	-3	-1	-25	-21	-6.0	.	8.5%
NC(=O)c1ccc(C(F)(F)F)cn1	26	2	-1	-2	0.2	-20%	-1.9%
O=C(N/N=C/c1ccc(Br)cc1)c1cc[n+]([O-])cc1	2	14	4	-13	1.6	-7%	-0.2%
COc1ccccc1NC(=O)Nc1nnc([C@H]2C[C@H](O)[C@@H](CO)O2)s1	-4	-1	-2	.	-4.0	.	-0.2%
CCCCc1c(-c2ccc(OC)cc2)ncn1CCc1ccccc1OC	-23	0	.	.	.	.	?
Cn1c(CCNC(=O)c2ccccc2)nc2cc(NC(=O)c3ccco3)ccc21	0	-8	-2	-1	-1.7	14%	0.6%[38.3 µM]
c1cc2c(cc1CN1CCOCC1)OCO2	3	0	-16	9	-1.0	9%	-0.6%[38.3 µM]
Cc1ccc(NC(=O)CSC(N)=O)cc1Cl	-4	-2	30	29	-2.9	-15%	5.2%
CCCCNC(=O)c1ccccc1SCc1c(C)noc1C	-2	-4	-8	3	-7.4	-5%	-1.1%
CCn1cc(S(=O)(=O)CC(=O)Nc2cc(C)on2)c2ccccc21	1	6	-1	-11	-1.5	-7%	-0.7%
O=c1[nH]nc(SCc2cc(Cl)ccc2Cl)c(=O)[nH]1	4	4	-1	29	-2.6	11%	-0.9%
CC(C)C1Nc2ccc(C(=O)N3CCN(c4ccccn4)CC3)cc2NC1=O (stereo unspecified)	6	-18	1	4	15	9%	0.1%
CC(=O)NS(=O)(=O)c1ccc2sc(C)nc2c1	2	.	-11	-3	-3.7	79µM*	-1.1%
Cc1ccc(CSc2nnc(-c3ccccc3N)c(=O)[nH]2)cc1	-17	-21	-2	20	-0.7	-6%	1.0%[38.3 µM]
O=C(NCCNc1ccc(Cl)cc1[N+](=O)[O-])c1ccccc1F	0	.	-14	4	-4.6	0%	6.0%
O=C(Cn1c(=O)oc2cc(S(=O)(=O)N3CCCC3)ccc21)NCc1ccccn1	-7	-1	-3	17	-0.8	-11%	0.1%
C/C(=N\NC(=O)Cc1ccc(Cl)cc1)c1cccc(NC(=O)c2cccnc2)c1	-2	-8	-9	16	1.7	6%	12%
Cc1ccc2cc(CCNC(=O)CC(C)(C)C)c(=O)[nH]c2c1C	4	6	-7	4	0.2	1%	2.2%
O=C(NC(=S)Nc1ccc(Br)cn1)c1cccnc1	-2	-6	0	0	-2.3	-21%	-0.7%
CCOC(=O)[C@]12CCC=C1N(Cc1ccc3c(c1)OCO3)C(=O)[C@H](CC(=O)NCC1CCCCC1)C2	2	0	.	.	.	.	0.9%
CCOc1ccc(C(CCc2ccccc2)NC(=O)c2ccccc2)cc1OCC (stereo unspecified)	3	6	-10	4	4.1	18%	-1.8%[38.3 µM]

Further structures:
SMILES	Six1-Eya2 inh	CtBP-E1A inh	D2 potentiator	TRPV1 PAM	D2 agonist	Sfp PPTase inh	PINK1 expr mod
Cc1nc(C)c(C(=O)Nc2ccccc2-c2ccccc2)o1	-2	3	-7	-1	-2.1	-12%	0.5%[38.3 µM]
COc1ccc(OC)c(-c2nnc(-c3ccc(C)o3)o2)c1	-5	-5	-10	11	-4.9	-9%	-2.5%
CC1CC(C)CN(c2nc(NCc3ccco3)nc(N)c2[N+](=O)[O-])C1 (stereo unspecified)	-12	9	-5	-9	-8.3	-14%	0.7%
CCOCCCNC(=O)c1ccc(/C=C2\Oc3ccccc3N(C)C2=O)cc1	9	11	0	-3	-2.7	-6%	1.2%
Cn1cc(CC(=O)NCCCN2CCOCC2)c2ccccc21	5	-11	-3	-2	-1.0	19%	-0.5%
CCOC(=O)C1(C)CCN1C(=O)c1cc(F)cc(F)c1 (stereo unspecified)	0	11	-5	.	-5.2	.	0.9%
Cc1c(OC(C)C(=O)O)ccc2c3c(c(=O)oc12)CCCC3 (stereo unspecified)	-1	0	-6	10	3.6	19%	2.9%
CC(C)(C)c1cc2cccnc2n1Cc1cccc(Cl)c1	7	-4	-25	-1	-1.0	10%	0.5%
COC(=O)c1sccc1NC(=O)c1ccc(C)s1	7	10	-4	25	-1.8	14%	2.1%
CCN(CC)C(=O)c1cc2c(=O)c3cc(F)ccc3oc2nc1C	2	3	-5	10	4.5	-5%	-1.3%
CCN(CC)C(=O)C1CCCN(C(=O)c2oc3ccc(C)cc3c2C)C1 (stereo unspecified)	-3	0	-1	-16	-2.8	7%	-0.2%
CCOC(=O)C1(C)CCCN(C(=O)c2ccc(OC)cc2OC)C1 (stereo unspecified)	6	4	-3	.	-3.0	.	0.7%
CCn1cc(C(=O)NC(=S)Nc2ccccc2Br)cn1	2	1	-9	-9	-5.0	-7%	5.0%
O=C(NCCc1nnc2ccc(NCCCN3CCOCC3)nn12)c1ccccc1F	2	6	-11	-2	0.9	15%	1.1%
CCCCC(=O)Nc1ccnc(-c2cccnc2)n1	-1	2	-10	5	-5.1	-5%	3.9%[38.3 µM]
Cc1ccc(NC(=O)c2ccc(CSc3nnc(-c4ccncc4)n3C)cc2)cc1	15	2	-19	.	-4.8	7%	3.1%
COc1cccc(-n2c(Cc3cc(=O)[nH]c(=O)[nH]3)nnc2SCC(=O)NC2CCCCC2)c1	-3	1	-2	.	-1.7	-2%	-2.6%
COc1ccc2c(COC(=O)CC3Sc4ccccc4NC3=O)cc(=O)oc2c1 (stereo unspecified)	-13	-13	-11	0	2.9	-8%	-4.7%
CCOC(=O)CSc1nnc(-c2ccco2)n1-c1ccccc1	0	-19	-10	?	-1.0	35µM*	?
CSc1ccccc1NC(=O)Nc1cccc(Cl)c1C	5	.	0	-22	-3.1	9%	0.8%
COCCNc1nc2cc(-c3ccccc3)sc2c(=O)n1C	-17	-6	-3	.	-6.9	.	2.1%
Cc1cccc(NC(=O)CN(CC2CCCO2)C(=O)c2oc3ccccc3c2C)c1C (stereo unspecified)	-2	-11	2	-5	0.9	.	0.4%
O=C(CSc1nnc(-c2ccc(Br)o2)n1Cc1ccccc1)c1ccccc1F	-12	-8	-8	-15	-4.3	35µM*	-1.1%
